Hsc70: Hsc70 inhibitors, probe displacement, primary screen, biochemical, fluorescence polarization (AID 568). Hsc70 fluorescence polarization, probe displacement; higher % means a stronger effect; strong numbers were not always called active. displacement, % at 20 µM; hits with a dose series show IC50 in µM. 83,000 tested, under 10 active;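 active = displacement above 50% without optical interference and an IC50 on retest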;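 note: ATPase domain with a fluorescein-tagged ATP probe; 0% = vehicle and 100% = excess ADP; read after one hour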
WNV protease inh: inhibitors of WNV NS2B-NS3 protease, primary screen, biochemical, fluorogenic substrate; Genome polyprotein (West Nile virus), P06935; fluorogenic substrate Ex360/Em465; active compounds read low; z-score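 (tested at a level between 10 and 100 µM)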; 0.18% of 65,000 active;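 active = z-score at -3 or under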;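 note: score is relative to mean and spread of the compound wells of a plate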
Target sequence (P06935 1371-1501 limits assumed): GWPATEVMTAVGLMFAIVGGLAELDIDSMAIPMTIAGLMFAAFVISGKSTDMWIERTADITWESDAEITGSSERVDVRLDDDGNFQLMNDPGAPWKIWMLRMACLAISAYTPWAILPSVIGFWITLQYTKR
Target sequence (P06935 1502-1679 limits assumed): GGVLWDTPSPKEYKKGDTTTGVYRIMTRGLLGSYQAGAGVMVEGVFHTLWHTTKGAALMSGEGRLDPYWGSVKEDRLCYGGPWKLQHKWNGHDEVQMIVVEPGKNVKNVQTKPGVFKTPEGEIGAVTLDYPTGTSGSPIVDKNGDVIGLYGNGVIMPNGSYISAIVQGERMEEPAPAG
MT1-MMP promoter: inhibitors of MT1-MMP promoter transcription, cell-based, luciferase reporter, luminescence (AID 618); MT1-MMP promoter luciferase reporter cells, luminescence; calls from a first round at 10 µM; hits with a dose series show EC50 in µM; 0.62% of 87,000 active;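 active = over half of the reporter light lost at 10 µM or EC50 under 50 µM; inactive = the rest and hits that failed the dose series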;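 note: actives suppress MT1-MMP promoter-driven transcription so potencies describe inhibitors; HT1080 fibrosarcoma cells; overnight exposure; toxic or luciferase-blocking compounds were not removed from the actives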
* hit, by the source's call; i = inactive; x = not tested or not shown. A portion of the library (hit frequency here may not be typical).

Structure,Hsc70,WNV protease inh,MT1-MMP promoter
O=C(O)C1=C(C(=O)Nc2ccc(F)c(Cl)c2)CCCC1,-4.0%,1.3,i
c1ccc2c(c1)nc1n2CCS1,-0.2%,-0.09,i
O=S(=O)(NC1CCCc2ccccc21)c1cnc[nH]1 (stereo not given),1.8%,0.61,i
Cc1cc(=O)oc2ccc(OC(=O)c3cccc(S(=O)(=O)N4CCOCC4)c3)cc12,1.1%,0.65,i
O=S(=O)(c1ccc2c(c1)OCCO2)N1CCC(n2cnc3cc(F)ccc32)CC1,-1.4%,-0.68,i
COc1ccc(C2=CC(c3ccc(Cl)cc3)n3cnnc3N2)cc1OC (stereo not given),10%,1,i
COCCNC(=O)CC(NS(=O)(=O)c1ccc(C)cc1)c1ccco1 (stereo not given),-0.5%,-0.49,i
CCC(C)(C)NC(=O)C(c1cccnc1)N(CCOC)C(=O)Cn1nnc2ccccc21 (stereo not given),-6.0%,-1.7,i
O=S(=O)(NC1CC1)c1ccc(S(=O)(=O)N2CCc3ccccc32)cc1,4.8%,-2,i
COc1ccc(NC(=O)CN(C)S(=O)(=O)c2ccccc2)cc1OC,-2.1%,-0.74,i
Cc1ccccc1Cn1cnc2c(nnn2Cc2ccc(F)cc2)c1=O,2.6%,-0.78,i
Cc1ccc(OC(=O)CCc2c(C)nc3ncnn3c2C)cc1,0.2%,-0.28,i
CCCNc1nc(C)c(C(C)=O)cc1C#N,3.5%,x,i
CC1CCc2nc(N)c(C#N)c(-c3cccn3C)c2C1 (stereo not given),-2.6%,-1.3,i
CCCOC(=O)Nc1sc2c(c1C(=O)OCC)CCC2,2.0%,-0.22,i
O=C1C2ON(c3ccccc3)C(c3cccnc3)C2C(=O)N1c1ccccc1 (stereo not given),-5.9%,0.39,i
CC1=CC(c2ccc(Cl)cc2)n2nc(NS(=O)(=O)c3ccc(C)cc3)nc2N1 (stereo not given),-8.7%,x,i
CCOC(=O)c1sc(NC(=O)CSc2nnc3c4ccccc4n(CC)c3n2)nc1C,2.6%,0.41,i
CCc1ccccc1NC(=O)c1cc2sccc2n1C,-0.5%,-1,i
CCOC(=O)c1ccc(S(=O)(=O)N2CCNCC2)cc1,-3.4%,x,i
CN1C(=O)/C(=C/c2cn(CC(=O)N3CCCCC3)c3ccccc23)c2ccccc21,26%,x,i
CCOC(=O)c1cnc(-n2cc(C)cn2)nc1Nc1ccccc1OCC,1.8%,-1,i
O=C1c2ccccc2C(=O)N1OCCOCCOCCON1C(=O)c2ccccc2C1=O,-2.8%,2,i
CN(C)CCCOc1ccc(C(C)(C)c2ccccc2)cc1,-0.2%,x,i
N#C/C(C(=O)Oc1ccccc1)=C1\C=CC=CN1,0.0%,-1.5,i
CCCn1c(N2CCOCC2)nc2c1c(=O)[nH]c(=O)n2C,-2.4%,x,i
O=C(Cc1cccs1)Nc1cccc(C(=O)Nc2ccco2)c1,0.6%,0.23,i
COc1ccc(OC)c(C2N(c3ccccn3)C(=O)C3CCCN32)c1 (stereo not given),-5.2%,0.12,i
CC(C)C[C@H]1C(=O)N2CCC[C@H]2[C@]2(O)O[C@](NC(=O)[C@@H]3C=C4c5cccc6[nH]c(Br)c(c56)CC4N(C)C3)(C(C)C)C(=O)N12 (stereo not given in full),8.7%,-0.55,i
Clc1ccc(C2CC(c3ccco3)n3ncnc3N2)cc1Cl (stereo not given),-4.0%,x,i

Sorted by molar mass (smallest number first): some entries from above.
Structure,Hsc70,WNV protease inh,MT1-MMP promoter
CCc1ccccc1NC(=O)c1cc2sccc2n1C,-0.5%,-1,i
Clc1ccc(C2CC(c3ccco3)n3ncnc3N2)cc1Cl (stereo not given),-4.0%,x,i
COc1ccc(OC)c(C2N(c3ccccn3)C(=O)C3CCCN32)c1 (stereo not given),-5.2%,0.12,i

The list goes on:
Structure,Hsc70,WNV protease inh,MT1-MMP promoter
CS(=O)(=O)Nc1cccc2cccnc12,-2.4%,3.2,i
FC(F)(F)c1cc(-c2cccs2)nc(N2CCOCC2)n1,-2.2%,-1.8,i
O=C(CSc1oc(-c2ccc(F)cc2)nc1S(=O)(=O)c1ccc(F)cc1)NCC1CCCO1 (stereo not given),1.2%,x,i
Cc1nc(OCC(=O)c2ccc(Cl)cc2)c(C#N)c2c1COC(C)(C)C2,0.1%,x,i
COc1cccc(C(=O)Nc2cnc(NC(=O)c3ccco3)cc2C)c1,6.8%,-0.56,i
N#Cc1c(-c2ccco2)cc(-c2ccc(F)cc2)nc1N,-20%,-0.74,i
Cc1ccc(C(=O)O)cc1S(=O)(=O)N1CCSCC1,-0.1%,1.5,i
CN(C1CCCCC1)S(=O)(=O)c1ccc(NC(=O)C2CCCCC2)cc1,7.2%,x,i
O=S(=O)(NCc1ccccn1)c1ccc2c(c1)OCCO2,-4.1%,0.22,i
CCOC(=O)CSc1nc2c(sc(=S)n2CCc2ccccc2)c(=O)n1Cc1ccco1,6.3%,-1.1,i
CCOC(=O)c1c(C)c(C(=O)NCc2ccc3c(c2)OCO3)c(C)n1C,-2.3%,0.03,i
COc1ccc(-c2cc(C(F)F)n3ncc(C(=O)NCC4CCCO4)c3n2)cc1 (stereo not given),1.2%,-1,i
Cc1ccc(-n2c(C)c3c(C)nnc(C)c3c2C)cc1,-4.5%,0.59,i
CCCCc1nnc(NC(=O)C2CCCO2)s1 (stereo not given),6.4%,0.29,i
O=C(c1c(F)cccc1F)N(Cc1ccccn1)C1CCCC1,1.1%,0.24,i
CCCCCC(=O)Nc1ccc(Cl)cn1,-4.2%,-0.03,i
CN(C1CCCCC1)S(=O)(=O)c1ccc(NC(=O)CCC(=O)O)cc1,0.5%,0.59,i
COc1ccc(NS(=O)(=O)c2ccc(NC(=O)C(C)(C(F)(F)F)C(F)(F)F)cc2)nn1,-6.4%,-0.35,i
CC(=O)OC1COC(n2ccc3ccccc32)C(OC(C)=O)C1OC(C)=O (stereo not given),0.2%,-1.2,i
O=C(CN1C(=O)NC2(CCCCCCC2)C1=O)N1CCOCC1,1.4%,-0.48,i
CCOC(=O)C1CCCN(C(=O)CN2C(=O)C(CC)Oc3ccc(C)cc32)C1 (stereo not given),4.1%,2.3,i
Cc1ccc(CSc2nnc(-c3cccnc3)n2N)cc1,2.7%,x,i
O=C(Nc1nc2ccccc2[nH]1)c1ccccc1,0.5%,x,3.5µM*
CCOC(=O)NC1CCS(=O)(=O)C1 (stereo not given),-2.3%,-0.45,i
COc1cc(CN2CCN(C(=O)CC(C)C)CC2)cc(OC)c1OC,-1.1%,-0.41,i
O=C1c2ccccc2-c2ncnc3c(N4CCOCC4)cc(N4CCOCC4)c1c23,20%,0.58,i
CCn1c(SCC(=O)Nc2cc(C)on2)nc2c(c1=O)SC(C)C2 (stereo not given),-4.4%,1,i
Cc1nnc(Oc2ccccc2F)c2ccccc12,1.5%,-0.88,i
O=C(Nc1ccc2c(c1)OCCO2)c1cccc(S(=O)(=O)N2CCCCC2)c1,1.3%,x,i
CCn1nnnc1SCC(=O)Nc1ccc2c(c1)OCO2,-3.2%,x,i

Shown with two lines to a compound: entries from further up
Screens in order – Hsc70, WNV protease inh, MT1-MMP promoter
Cc1ccc(CSc2nnc(-c3cccnc3)n2N)cc1
→ 2.7%, x, i
O=C(Nc1nc2ccccc2[nH]1)c1ccccc1
→ 0.5%, x, 3.5µM*
CCOC(=O)NC1CCS(=O)(=O)C1 (stereo not given)
→ -2.3%, -0.45, i
COc1cc(CN2CCN(C(=O)CC(C)C)CC2)cc(OC)c1OC
→ -1.1%, -0.41, i

(list continues)
Structure,Hsc70,WNV protease inh,MT1-MMP promoter
O=C(NCc1ccco1)c1ccc(CS(=O)(=O)Cc2ccc(Cl)cc2)o1,-4.2%,-0.75,i
Cc1c(NC(=O)c2ccccc2)c(=O)n(-c2ccccc2)n1C,-1.6%,x,i
CN(C)C(=O)N1CCC(C(=O)NCc2cccs2)CC1,-5.0%,-0.41,i
CCn1nnnc1SCC(=O)N1CCCc2ccccc21,7.4%,x,i
COc1ccccc1C(=O)NCC1CCN(c2ccc(S(=O)(=O)N3CCOCC3)cc2)CC1,1.8%,x,i
CC(C)n1c(SCC(=O)Nc2nc3c(s2)CCCC3)nc2c1c(=O)n(C)c(=O)n2C,1.6%,x,i
CCn1c(SCC(=O)N2CC(=O)Nc3ccccc32)nnc1-c1ccoc1C,-0.7%,-0.36,i
CCOC(=O)C1CCCN(CCC(C)c2ccccc2)C1 (stereo not given),7.7%,-0.31,i
COc1ccc(Br)cc1CNC(=O)CCc1nc(-c2ccc(C)cc2)no1,-6.6%,0.59,i
C=CCn1c(=N)c(C(=O)OCC)cc2c(=O)n3cc(C)ccc3nc21,0.2%,-0.38,i
O=C(NCC1CCCO1)NC12CC3CC(CC(C3)C1)C2 (stereo not given),2.3%,-0.91,i
O=C(OCc1cc(Cl)ccc1OC(F)F)c1cc(S(=O)(=O)O)ccc1O,5.3%,-0.01,i
C=CCN1C(=O)c2ccccc2Sc2ccc(C(=O)N3CCN(C)CC3)cc21,-0.2%,0.7,i
O=C(Nc1ccc(N2CCOCC2)cc1)c1cccc(S(=O)(=O)N2CCCC2)c1,1.5%,-0.05,i
CCn1c(SCC(=O)Nc2nccs2)nnc1-c1ccc(S(=O)(=O)N2CCCCC2)cc1,2.2%,0.6,i
CCn1c(C(=O)NCc2ccccn2)cc2sccc21,-6.8%,-0.33,i
Cc1cc(NC(=O)C2CCCC2)nc2c1c(=O)oc1ccccc12,-6.8%,0.54,i
CC(C)(C)c1ccc(-c2noc(CCC(N)=O)n2)cc1,-3.9%,0.82,0.13µM*
Cc1ccc(S(=O)(=O)N2CCCC2C(=O)Nc2ccc(O)cc2)cc1 (stereo not given),2.0%,0.17,i
COc1cccc(C(=O)Nc2cccc(C(=O)N3CCOCC3)c2)c1,-0.4%,0.4,i
Cc1csc(NC(=O)C(Cc2ccccc2)n2cccc2)n1 (stereo not given),-1.0%,-0.65,i
Cc1cc(N2CCN(C3CCCC3)CC2)n2nc(C)c(-c3ccccc3)c2n1,6.0%,0.11,i
CCOC(=O)CSc1ccc2nnc(-c3cccnc3)n2n1,0.7%,-1.2,i
COc1ccc2c(c1)C(NC(C)=O)C(=O)N2C (stereo not given),7.1%,-0.63,i
CC(C(=O)O)c1n[nH]c(=O)c2ccccc12 (stereo not given),-3.7%,x,i
CCOC(=O)c1c(N=CN(C)C)c(C#N)c2n1CCCC2,0.8%,x,i
CC(C)c1ccc(NC(=O)COC(=O)C2=COCCO2)cc1,-9.0%,2.1,i
COc1ccc(CN(C(=O)CSc2nnc(-c3c[nH]c4ccccc34)o2)c2ccc(F)cc2)cc1OC,-2.7%,x,i
COc1ccc(C2C(C#N)=C(SCC(=O)Nc3ccc(C)cc3)NC3=C2C(=O)CC(C)(C)C3)cc1 (stereo not given),-14%,x,i
CCOc1ccc(NC(=O)c2cccc3c2C(=O)N(Cc2cccnc2)C3)cc1,-4.6%,0.27,i
Cc1ccc(OCC(=O)N/N=C/c2ccco2)cc1,5.9%,x,i
O=C(Nc1ccccc1F)c1ccc(COc2ccc(Cl)cc2Cl)o1,-1.8%,x,i
CN(CCOCCOc1ccc2ccccc2c1)Cc1ccccc1,-3.1%,x,i
Brc1ccc(-n2cccc2/C=N/n2cnnc2)cc1,8.3%,x,i
COc1cc(C)c(Cl)cc1S(=O)(=O)NCCN1CCOCC1,3.3%,x,i
c1ccc(C(c2c[nH]c3ccccc23)c2c[nH]c3ccccc23)nc1,0.8%,x,i
COc1cccc(NC(=O)C2C3C=CC4(O3)C2C(=O)N(C(C)C)C4C(=O)NC2CCCCC2C)c1 (stereo not given),3.7%,-0.08,i
C=CCn1c(=S)[nH]c2nc3c(cc2c1=O)COC(C)(C)C3,-4.0%,0.74,i
Cn1nnnc1SCSc1nnnn1C,2.6%,-0.79,i
O=C1CC(c2ccncc2)c2cc3c(cc2N1)OCO3 (stereo not given),9.7%,0.92,i
CCOC(=O)CSc1nnc(CNc2ccccc2Cl)n1-c1ccccc1,3.0%,-1.1,i
CCOC(=O)C1/C(=N\O)CC(C)(O)C(C(=O)OCC)C1c1ccc(N(C)C)cc1 (stereo not given),3.8%,-0.26,i
Cc1c(Cl)cccc1Nc1ccccc1C(=O)O,2.0%,-0.54,i
COc1cccc(CNC(=O)c2ccc3nc[nH]c3c2)c1,-4.2%,0.46,i
CSCC[C@@H](Nc1nc(-c2ccccc2)nc2c1oc1ccccc12)C(=O)O,2.4%,-0.75,i
OC(COc1ccc(Br)cc1)CN1CCOCC1 (stereo not given),3.2%,-0.18,i
S=c1[nH]nc(-c2cc(-c3ccco3)[nH]n2)n1-c1cccc2ccccc12,-4.0%,x,i

Compound activity: PubChem, several laboratories
